Screening data deposited in PubChem by National Center for Advancing Translational Sciences (NCATS).
LASV entry inh: Lassa virus entry inhibition; Lassa virus pseudotype entry inhibition, cell reporter; control for the full effect not named in the record; Potency, µM (doses to about 37.9 µM), inactives show at the highest dose activity change, negative = inhibition, hits mostly inhibitors; 1.2% of 300,000 active; active means well fitted inhibition curve with a large enough effect; inconclusive means small, poorly fitted or top-dose-only effect, or effect the other way; inactive means flat fitted curve, though single readings scatter; tested in HEK293 cells; further: on the % scale 0 is the no-effect control and ±100 the full control effect; nearly all actives have a fitted effect of over 50% in size; luciferase read-out
StopGo reporter: FMDV 2A StopGo reporter, luciferase signal; human cells with a luciferase reporter of 2A StopGo recoding; control for the full effect not named in the record; Potency, µM (doses to about 57.9 µM), for inactives: top-dose signal change, negative = less light; 1.2% of 410,000 active; active = well fitted falling curve with a large enough effect; inconclusive = small, poorly fitted or top-dose-only effect; inactive = no such curve, though single readings can be large or run the other way; tested in HEK293T cells; further: on the % scale 0 is the no-effect control and ±100 the full control effect; nearly all actives have a fitted effect of over 45% in size; luciferase light after 4 h
Cruzain noTriton: inhibitors of Trypanosoma cruzi cruzain without detergent; AID 1476; Potency, µM, inactives show max response, negative = inhibition, most hits filed as inhibitors; purified cruzain, Z-FR-AMC fluorescence, no detergent; 2.3% of 200,000 active; active means well fitted curve in the direction sought with a large enough effect; inconclusive means small, poorly fitted or top-dose-only effect, or another doubt; inactive means no such curve, though single readings can be large; an effect the other way counts as inactive or inconclusive;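 further: plate controls were enzyme without inhibitor for no effect and buffer without enzyme for full effect; nearly all actives have a fitted effect of over 40% in size; top concentration of the series not given in the record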
Target sequence (P25779 123-467 limits assumed): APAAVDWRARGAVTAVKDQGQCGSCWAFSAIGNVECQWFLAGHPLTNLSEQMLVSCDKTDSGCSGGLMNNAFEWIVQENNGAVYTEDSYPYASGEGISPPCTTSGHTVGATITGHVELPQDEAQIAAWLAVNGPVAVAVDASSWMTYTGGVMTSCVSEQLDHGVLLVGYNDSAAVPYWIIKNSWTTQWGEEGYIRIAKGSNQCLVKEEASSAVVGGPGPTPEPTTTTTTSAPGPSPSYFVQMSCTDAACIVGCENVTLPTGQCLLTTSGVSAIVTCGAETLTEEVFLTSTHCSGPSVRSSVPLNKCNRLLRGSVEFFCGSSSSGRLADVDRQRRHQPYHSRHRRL
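Detergent-free condition (0.00005% Triton X-100) in acetate buffer pH 5.5 with DTT. 1.5 nM enzyme and compound were pre-mixed 15 min, then 2 uM Z-FR-AMC substrate added; reaction progress from fluorescence change between first and third reads (60 s).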
NS1 inh: blocks influenza NS1 protein function; AID 2326; 0.4% of 270,000 active; S. cerevisiae slowed by influenza A NS1, growth recovery by OD600; Potency, µM (series often up to 46.1 µM), without a hit: top-dose activity, positive = more growth; further: actives are rising curves; nearly all actives have a fitted effect of over 50% in size
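Read-out: OD600 growth recovery of NS1-expressing budding yeast. Cells grown overnight at 30C in -URA glucose medium, washed, resuspended and diluted 1:100 in 2% galactose assay medium, pH 6.0. Same strain lacking NS1 served as positive control.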
SARS PLP yeast: blocks SARS-CoV papain-like protease in a yeast assay | Potency, µM (doses to about 32.9 µM), inactives show at the top dose activity, positive = growth rescue | 0.19% of 330,000 active | S. cerevisiae expressing SARS-CoV PLpro, growth rescue; control for the full effect not named in the record | AID 485353; further: 0% is about no effect; nearly all actives have a fitted effect of over 55% in size; growth read by luminescence after 48 h
Cruzain Triton: cruzain (T. cruzi) inhibition with detergent. purified cruzain, Z-FR-AMC fluorescence, 0.01% Triton. Potency, µM, for the others: max response, negative = inhibition, most hits filed as inhibitors. 0.43% of 200,000 active. P25779; active means well fitted curve in the direction sought with a large enough effect; inconclusive means small, poorly fitted or top-dose-only effect, or another doubt; inactive means no such curve, though single readings can be large; an effect the other way counts as inactive or inconclusive;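 further: plate controls were neutral wells for no effect and buffer without enzyme for full effect; nearly all actives have a fitted effect of over 40% in size; top concentration of the series not given in the record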
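Detergent-containing run (0.01% Triton X-100) in acetate buffer pH 5.5 with 5 mM DTT: enzyme at 1.5 nM final, 15 min compound preincubation at room temperature, then 2 uM Z-FR-AMC substrate. Activity taken as 60 s fluorescence increase at 360/450 nm.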
RE007 growth inh: less growth of the S. pombe RE007 Vpr strain; 0.21% of 360,000 active; S. pombe RE007 Vpr strain, BacTiter-Glo ATP luminescence, 24 h; control for the full effect not named in the record; Potency, µM (highest dose often 92.2 µM), for inactives: at the highest dose activity change, negative = less growth; AID 651644; active = well fitted falling curve with a large enough effect; inconclusive = small, poorly fitted or top-dose-only effect; inactive = no such curve, though single readings can be large or run the other way;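 further: on the % scale 0 is the no-effect control and ±100 the full control effect; nearly all actives have a fitted effect of over 50% in size; the assay follows cell death caused by Vpr and the record does not say whether a fall means rescue or toxicity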
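Fission yeast strain RE007, carrying one chromosomally integrated HIV-1 vpr copy, was seeded at OD 0.01 in PMG+AL medium with 23 nL pinned compound. After 24 h at 30 °C and 99% humidity, viability was read by BacTiter-Glo luminescence.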
Marburg entry inh: blocks Marburg virus binding to or entry into cells; Marburg virus pseudotyped entry inhibition, cell reporter; control for the full effect not named in the record; about a third of the inactives were read at about 46 µM; 1.8% of 300,000 active; Potency, µM (top dose mostly 37.8 µM), without a hit: top-dose activity change, negative = inhibition, hits mostly inhibitors; active = well fitted inhibition curve with a large enough effect; inconclusive = small, poorly fitted or top-dose-only effect, or effect the other way; inactive = flat fitted curve, though single readings scatter; tested in HEK293 cells; about a fifth of its hits are not listed in these tables; further: on the % scale 0 is the no-effect control and ±100 the full control effect; luciferase read-out
* hit, by the source's call; ? = inconclusive; / = not tested or not shown; & = joins results of further samples; [ ] = dose if it differs, or a comment. Unless noted, the call rests on the fitted dose curve; in most records, active means well fitted rising curve with a large enough effect; inconclusive means small, poorly fitted or top-dose-only effect; inactive means no such curve, though single readings can be large or run the other way. Potency means the concentration at half of the fitted maximal effect.

The line under a structure holds: NS1 inh, LASV entry inh, StopGo reporter, SARS PLP yeast, RE007 growth inh, Cruzain noTriton, Cruzain Triton, Marburg entry inh
> COc1ccc(C(=O)N/C(=C\c2cn(S(=O)(=O)N(C)C)c3ccccc23)C(=O)NCCN2CCOCC2)cc1OC
 : -8.6%, /, 17.6%, 0.0%, -5.5%, /, /, /
> Cc1cc(N2CCOCC2)ccc1/C=C1\NC(=O)N(CC(=O)Nc2ccc(F)cc2)C1=O
 : 0.1%, -3.7%, 25.3%, 0.3%, -7.0%, /, /, 0.7%
> COc1cc(/C=C(\C#N)C(=O)NCC2CCCO2)ccc1OC(C)C (stereo not drawn)
 : -15.6%, 13.8%, -5.1%, -10.5%, -15.4%, 2.4%, -3.0%, -21.8%
> Cc1ccccc1NC(=O)c1ccc(NS(=O)(=O)c2cc(C(C)(C)C)cc(C)c2C)cc1
 : -39.7%, ?, 59.9%[activator], 5.9%, -11.1%, -25.3%, -6.0%, ?
> CC1(OC(=O)CCc2ccccc2)C(=O)C=C2C=C(c3ccc(C#N)cc3)N(CCc3ccccn3)C=C2C1=O (stereo not drawn)
 : ?, /, -8.3%, 4.8%, -17.6%, /, /, /
> CCOc1ccc(OCCNCc2ccc(OC(C)C(=O)N(C)C)c(OCC)c2)cc1 (stereo not drawn)
 : -0.6%, 28.7%[46.1 µM], -20.7%, 1.6%, -6.7%, /, /, -15.5%[46.1 µM]
> C=CCn1c(=NC(=O)C2CCCCC2)sc2cc(NC(C)=O)ccc21
 : -0.6%, /, -15.2%, -0.8%, 1.4%, ?, 5.3%, /
> O=C(Cc1ccccc1)N/N=C/c1cccnc1
 : 4.1%, 0.2%, 10.9%, 1.9%, -22.0%, /, /, ?
> O=C(NNC(=S)NC(=O)c1ccco1)c1ccc(NC(=O)c2ccccc2)cc1
 : /, -23.8%, -8.6%, -5.0%, -6.6%, /, /, ?
> CCOC(=O)C(NC(C)=O)C(=O)Nc1c(C)cccc1C (stereo not drawn)
 : 2.9%, -0.1%, 3.3%, 0.2%, -0.6%, /, /, -9.5%[46.1 µM]
> O=C1C=C(c2ccccc2)C(c2ccccc2)C1 (stereo not drawn)
 : /, 1.5%[46.1 µM], -8.7%, /, 30.0%, /, /, -2.4%[46.1 µM]
> N#CCSc1nnc(-c2ccc(F)cc2)n1N
 : /, 21.9%[46.1 µM], 34.9%, -4.0%, 4.2%, /, /, -1.4%[46.1 µM]
> O=C(/C=C/c1ccccc1)Nc1ccc(Cl)cn1
 : 0.0%, ?, 21.5%, 0.5%, -21.9%, /, /, ?
> N=c1ccn(Cc2ccc(Cl)c(Cl)c2)cc1
 : -10.7%, -29.3%, ?, -3.5%, ?, -18.0%, -1.5%, ?
> Cc1cccc(N2CCN(S(=O)(=O)c3c(C(=O)N4CCCCC4)c(C)n(C)c3C)CC2)c1C
 : 12.5%, /, -6.8%, 3.9%, 5.2%, /, /, /
> CCNC(=O)N1C(=O)C2(OCCO2)c2cc(Br)ccc21
 : -5.9%, 7.7%, -12.1%, 3.2%, -1.0%, -8.7%, 1.3%, 17.0%
> Cc1cccc(Oc2nc3ccccn3c(=O)c2/C=C(\C#N)C(=O)NC2CCS(=O)(=O)C2)c1 (stereo not drawn)
 : -3.0%, -0.2%, 0.0%, -10.5%, -6.9%, ?, -1.3%, -13.3%
> COC(=O)C1CCN(C(=O)c2ccc(SC)cc2OC)CC1
 : -8.9%, 12.9%, 18.1%, 6.2%, -3.9%, 0.0%, 3.7%, -1.1%
> COc1ccc(C(=O)NN)cc1
 : -1.1%, 0.8%, 18.0%, -1.3%, -1.9%, /, /, 12.2%[46.1 µM]
> O=C(COCC(=O)N1CCOCC1)N1CCOCC1
 : /, 7.0%[46.1 µM], -6.8%, -5.6%, 7.7%, /, /, ?
> COc1cc(/C=C2/C(=O)CNC2=O)ccc1O
 : /, ?, -7.0%, -1.5%, -3.6%, /, /, 3.7%
> O=C1C2CCCN2C(=O)N1CCCN1CCN(c2cccc(Cl)c2)CC1 (stereo not drawn)
 : 14.6%, 9.3%, -3.4%, 16.4%, 3.9%, -3.6%, -2.0%, 11.8%
> CCCCOc1ccc(Cc2c(Cl)nc(SC)nc2N2CCOCC2)cc1
 : -0.3%, -1.6%, ?, -40.1%, /, -14.3%, -6.1%, ?
> COc1ccc(C(CC(=O)c2ccc(O)cc2)S(=O)(=O)c2ccc(C)cc2)cc1 (stereo not drawn)
 : -40.6%, -3.5%, 34.4%[activator], -22.9%, -12.9%, -7.2%, -9.8%, -1.4%
> CCn1c(=O)cc(N2CCN(C(=O)c3ccco3)CC2)[nH]c1=O
 : 0.7%, /, -17.4%, -0.2%, 12.6%, /, /, /
> Cc1c(Cl)cccc1NC(=O)C1CCCN(S(C)(=O)=O)C1 (stereo not drawn)
 : 6.1%, /, -19.6%, -5.5%, 13.3%, /, /, /
> COc1ccc(Cc2n[nH]c(=S)n(N)c2=O)cc1
 : /, -4.6%, 13.0%, 1.9%, 18.7%, /, /, 8.9%[46.1 µM]
> Cc1csc(SCC(=O)NC2CCC(C)CC2)n1 (stereo not drawn)
 : /, 11.3%, 19.3%, /, 6.6%, /, /, 28.5%
> COc1ccccc1CCC(=O)OC(C)C(=O)Nc1c(C)n(C)n(-c2ccccc2)c1=O (stereo not drawn)
 : /, 25.9%, -17.3%, 12.7%, 4.1%, /, /, ?
> COc1ccc(NP(=O)(Oc2cccc(C)c2)Oc2cccc(C)c2)cc1OC
 : 5.1%, /, 19.2%, 0.4%, 1.8%, /, /, /

As entered above:
CCNC(=O)N1C(=O)C2(OCCO2)c2cc(Br)ccc21 in LASV entry inh reads 7.7%
COc1ccc(C(=O)NN)cc1 in StopGo reporter reads 18.0%
COc1ccc(C(CC(=O)c2ccc(O)cc2)S(=O)(=O)c2ccc(C)cc2)cc1 (stereo not drawn) in LASV entry inh reads -3.5%
CCn1c(=O)cc(N2CCN(C(=O)c3ccco3)CC2)[nH]c1=O in SARS PLP yeast reads -0.2%

(more compounds)
The line under a structure holds: NS1 inh, LASV entry inh, StopGo reporter, SARS PLP yeast, RE007 growth inh, Cruzain noTriton, Cruzain Triton, Marburg entry inh
> Cc1cc(Nc2ccccc2)nn1C(=O)c1ccccc1
 : -190.8%, 3.4%, /, -29.2%, 6.4%, -11.1%, -9.4%, 8.1%
> Cc1onc(-c2ccccc2)c1C(=O)N/N=C/c1ccco1
 : 1.8%, 0.4%[46.1 µM], 7.4%, 1.4%, 21.7%, /, /, 9.9%[46.1 µM]
> CC(C)C(=O)C1=Cc2cc([N+](=O)[O-])ccc2OC1N1CCOCC1 (stereo not drawn)
 : -63.9%, /, -19.8%, -11.1%, -12.6%, /, /, /
> Cc1csc(-c2cnn(-c3ccccc3)c2NC(=O)c2cccc(F)c2)n1
 : -0.8%, 17.0%, 0.0%, 3.3%, -24.9%, -4.5%, -5.3%, -11.4%
> O=C(O)c1ccc(COCC(F)(F)C(F)F)o1
 : 5.6%, 0.1%, -12.6%, -2.2%, 5.1%, -0.1%, 4.4%, -1.9%&-1.9%[46.1 µM]
> CC12CC(O)C3C(CCC4=CC(=O)CCC43C)C1CCC2=CCO (stereo not drawn)
 : /, -10.9%[46.1 µM], -24.3%, /, -7.7%, /, /, -0.6%[46.1 µM]
> Cc1c(Cl)cccc1NC(=O)CN1C(=O)COc2ccc(S(=O)(=O)Nc3ccccc3)cc21
 : /, -9.2%[46.1 µM], 21.4%, /, /, -22.9%, -5.5%, /
> COc1ccccc1NC(=O)CN1CCC(n2nnc3cc(F)ccc32)CC1
 : -33.1%, -0.2%, ?, -4.0%, 0.4%, 0.9%, -0.4%, -6.7%
> Cc1cccc(N2CCN(C(=S)c3ccc(-c4ccccc4[N+](=O)[O-])o3)CC2)c1
 : 19.0%, ?, 9.5%, 16.9%, 23.9%, ?, -3.8%, 5.7%
> CC1CCN(S(=O)(=O)c2ccc(NC(=O)CCNC(=O)c3ccc(Cl)cc3)cc2)CC1
 : /, -0.4%, -20.1%, 1.4%, 11.3%, /, /, ?
> Cc1ccc(-c2c3c(=O)n(C)c(=O)n(C)c3c3n2-c2ccccc2NC3c2ccc(C)cc2O)cc1 (stereo not drawn)
 : /, 8.1%[46.1 µM], -26.0%, /, /, -0.8%, -1.8%, ?
> S=c1[nH]cc(-c2ccccc2)n1-c1ccccc1
 : 0.8%, -4.8%, -7.6%, 2.7%, 27.7%, -12.7%, -3.2%, -0.9%
> COc1ccc(C(C(=O)NC2CCCC2)N(C(=O)c2ccoc2C)c2ccc(C)cc2)cc1 (stereo not drawn)
 : -3.4%, ?, -7.2%, -9.7%, 0.6%, -0.8%, 2.3%, -25.5%
> CN(Cc1ccccc1)C(=O)COC(=O)c1ccc(Cl)c(N)c1
 : 7.1%, -3.0%, 2.9%, 9.8%, 2.6%, 6.2%, 3.2%, 6.7%
> Cc1ccc(S(=O)(=O)N2CC(=O)NC(=O)C2)cc1
 : -2.4%, /, 8.2%, 3.8%, 11.6%, /, /, 22.1%[46.1 µM]
> CN1CCCC(C(=O)c2ccc(Cl)cc2)C1 (stereo not drawn)
 : 1.8%, /, 4.4%, 0.5%, -7.2%, /, /, /
> C1CCC(CNc2c3c(nc4nnnn24)CCCC3)CC1
 : 4.0%, -7.6%, -9.4%, -9.6%, 2.2%, 1.1%, 2.9%, -7.6%
> CCCCN(C(=O)c1ccc([N+](=O)[O-])s1)c1c(N)n(CCCC)c(=O)[nH]c1=O
 : /, 8.0%, -16.1%, -5.0%, 12.9%, /, /, -67.6%

One compound at a time, from the list above. Order of values: NS1 inh, LASV entry inh, StopGo reporter, SARS PLP yeast, RE007 growth inh, Cruzain noTriton, Cruzain Triton, Marburg entry inh
Cc1csc(SCC(=O)NC2CCC(C)CC2)n1 (stereo not drawn) as listed: /, 11.3%, 19.3%, /, 6.6%, /, /, 28.5%
C=CCn1c(=NC(=O)C2CCCCC2)sc2cc(NC(C)=O)ccc21 as listed: -0.6%, /, -15.2%, -0.8%, 1.4%, ?, 5.3%, /
